# Screening data deposited in PubChem by National Center for Advancing Translational Sciences (NCATS).
# Cruzain inh Det = inhibitors of Trypanosoma cruzi cruzain with detergent | P25779 | purified cruzain, Z-FR-AMC fluorescence, 0.01% Triton | Potency, µM, inactives show max response, negative = inhibition, most hits filed as inhibitors | 200,000 compounds, 0.43% hits; active = well fitted curve in the direction sought with a large enough effect; inconclusive = small, poorly fitted or top-dose-only effect, or another doubt; inactive = no such curve, though single readings can be large; an effect the other way counts as inactive or inconclusive;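 note: plate controls were neutral wells for no effect and buffer without enzyme for full effect; nearly all actives have a fitted effect of over 40% in size; top concentration of the series not given in the record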
# Target sequence (P25779 123-467 limits assumed): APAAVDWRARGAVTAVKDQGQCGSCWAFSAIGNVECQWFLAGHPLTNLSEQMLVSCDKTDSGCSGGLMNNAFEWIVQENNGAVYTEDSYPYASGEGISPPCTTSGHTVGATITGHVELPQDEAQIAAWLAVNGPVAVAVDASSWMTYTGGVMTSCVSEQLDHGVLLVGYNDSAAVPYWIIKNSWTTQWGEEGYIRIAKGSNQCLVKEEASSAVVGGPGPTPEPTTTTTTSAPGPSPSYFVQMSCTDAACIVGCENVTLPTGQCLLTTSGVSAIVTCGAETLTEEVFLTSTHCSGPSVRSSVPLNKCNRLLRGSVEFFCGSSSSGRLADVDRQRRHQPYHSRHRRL
#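 Detergent-containing run (0.01% Triton X-100) in acetate buffer pH 5.5 with 5 mM DTT: enzyme at 1.5 nM final, 15 min compound preincubation at room temperature, then 2 uM Z-FR-AMC substrate. Activity taken as 60 s fluorescence increase at 360/450 nm.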
# NS1 function inh = influenza NS1 inhibition; Potency, µM (doses to about 46.1 µM), for the others: top-dose activity, positive = more growth; 270,000 compounds, 0.4% hits; S. cerevisiae slowed by influenza A NS1, growth recovery by OD600; AID 2326; note: actives are rising curves; nearly all actives have a fitted effect of over 50% in size
#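 In this qHTS, NS1 from influenza A is expressed in budding yeast, where it slows growth. Cells are switched from glucose to 2% galactose medium (pH 6.0, -URA), treated with compound, and growth recovery is read at OD600.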
# 2A StopGo = lowers the luciferase signal of an FMDV 2A StopGo reporter; human cells with a luciferase reporter of 2A StopGo recoding; control for the full effect not named in the record; Potency, µM (highest dose often 57.9 µM), inactives show at the top dose signal change, negative = less light; 410,000 compounds, 1.2% hits; AID 1159524; active = well fitted falling curve with a large enough effect; inconclusive = small, poorly fitted or top-dose-only effect; inactive = no such curve, though single readings can be large or run the other way; tested in HEK293T cells; note: % is set by controls: 0 for no effect and ±100 for the full control effect; nearly all actives have a fitted effect of over 45% in size; luciferase light after 4 h
# RE007 growth inh = less growth of the S. pombe RE007 Vpr strain; S. pombe RE007 Vpr strain, BacTiter-Glo ATP luminescence, 24 h; control for the full effect not named in the record; AID 651644; 360,000 compounds, 0.21% hits; Potency, µM (top dose mostly 92.2 µM), without a hit: at the top dose activity change, negative = less growth; active = well fitted falling curve with a large enough effect; inconclusive = small, poorly fitted or top-dose-only effect; inactive = no such curve, though single readings can be large or run the other way;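 note: % is set by controls: 0 for no effect and ±100 for the full control effect; nearly all actives have a fitted effect of over 50% in size; the assay follows cell death caused by Vpr and the record does not say whether a fall means rescue or toxicity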
#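 Fission yeast strain RE007, carrying one chromosomally integrated HIV-1 vpr copy, was seeded at OD 0.01 in PMG+AL medium with 23 nL pinned compound. After 24 h at 30 °C and 99% humidity, viability was read by BacTiter-Glo luminescence.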
# Cruzain noTriton = blocks cruzain activity in detergent-free assay; purified cruzain, Z-FR-AMC fluorescence, no detergent; Potency, µM, for inactives: max response, negative = inhibition, actives largely listed as inhibitors; 200,000 compounds, 2.3% hits; AID 1476; active = well fitted curve in the direction sought with a large enough effect; inconclusive = small, poorly fitted or top-dose-only effect, or another doubt; inactive = no such curve, though single readings can be large; an effect the other way counts as inactive or inconclusive;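 note: plate controls were enzyme without inhibitor for no effect and buffer without enzyme for full effect; nearly all actives have a fitted effect of over 40% in size; top concentration of the series not given in the record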
#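 Detergent-free condition (0.00005% Triton X-100) in acetate buffer pH 5.5 with DTT. 1.5 nM enzyme and compound were pre-mixed 15 min, then 2 uM Z-FR-AMC substrate added; reaction progress from fluorescence change between first and third reads (60 s).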
# Lassa entry inh = blocks Lassa virus binding to or entry into cells. Lassa virus pseudotype entry inhibition, cell reporter; control for the full effect not named in the record. Potency, µM (titrated, usually from 37.9 µM), inactives show at the top dose activity change, negative = inhibition, actives largely listed as inhibitors. 300,000 compounds, 1.2% hits; active means well fitted inhibition curve with a large enough effect; inconclusive means small, poorly fitted or top-dose-only effect, or effect the other way; inactive means flat fitted curve, though single readings scatter; tested in HEK293 cells; note: % is set by controls: 0 for no effect and ±100 for the full control effect; nearly all actives have a fitted effect of over 50% in size; luciferase read-out
# SARS PLpro yeast = SARS-CoV PLP inhibition in yeast | S. cerevisiae expressing SARS-CoV PLpro, growth rescue; control for the full effect not named in the record | Potency, µM (highest dose often 32.9 µM), for inactives: at the top dose activity, positive = growth rescue | 330,000 compounds, 0.19% hits; note: 0% is about no effect; nearly all actives have a fitted effect of over 55% in size; growth read by luminescence after 48 h
# Marburg entry inh = blocks Marburg virus binding to or entry into cells; Marburg virus pseudotyped entry inhibition, cell reporter; control for the full effect not named in the record; about a third of the inactives were read at about 46 µM; 300,000 compounds, 1.8% hits; AID 540276; Potency, µM (titrated, usually from 37.8 µM), for inactives: at the highest dose activity change, negative = inhibition, most hits filed as inhibitors; active = well fitted inhibition curve with a large enough effect; inconclusive = small, poorly fitted or top-dose-only effect, or effect the other way; inactive = flat fitted curve, though single readings scatter; tested in HEK293 cells; about a fifth of its hits are not listed in these tables; note: % is set by controls: 0 for no effect and ±100 for the full control effect; luciferase read-out
# * = called active by the depositor; ? = inconclusive; nt = no result given; & = joins results of further samples; [ ] = dose if it differs, or a comment. Unless noted, calls come from the whole dose curve; as a rule, active means well fitted rising curve with a large enough effect; inconclusive means small, poorly fitted or top-dose-only effect; inactive means no such curve, though single readings can be large or run the other way. Potency is the fitted concentration of half-maximal effect.
SMILES,Cruzain inh Det,NS1 function inh,2A StopGo,RE007 growth inh,Cruzain noTriton,Lassa entry inh,SARS PLpro yeast,Marburg entry inh
O=C(O)CCN1C(=O)C2C3CC(C2C1=O)C1C(c2ccccc2)c2sc(=O)n(-c4ccccc4)c2SC31 (stereo not drawn),nt,nt,10%,5%,nt,-5%,6%,-7%[46.1 µM]
CC(C)c1ccc(NC(=S)N(C)CCc2ccccn2)cc1,nt,-31%,81%[activator],-11%,nt,?,-1%,-27%[46.1 µM]
Cc1ccc(-c2ccccc2)n1-c1ccc(C(=O)O)cc1,-0.9%,-49%,-19%,-28%,-3%,27%,-12%,14%
CNC(=O)c1ccsc1NC(=O)C1CCN(S(=O)(=O)c2ccc(Cl)s2)CC1,nt,nt,-20%,3%,nt,?,3%,?
FC(F)(F)c1nnc(Nc2ccc(Cl)cc2)s1,nt,-110%,?,-7%,nt,-34%,-6%,-10%[46.1 µM]
COc1ccc(OCC(=O)OC2CCCN(C)C2)cc1 (stereo not drawn),nt,0%,5%,11%,nt,-20%[46.1 µM],0%,8%[46.1 µM]
CCc1nc2ccccc2n1Cc1cc(=O)n2cc(C)ccc2n1,-6.3%,-9%,-6%,-13%,-6%,?,0%,7%
Cc1nnc(NC(=O)c2ccc(S(=O)(=O)N3CCCCC3C)cc2)o1 (stereo not drawn),nt,-19%,-12%,7%,nt,1%,0%,-13%&-13%
CSc1nc2ccccc2cc1/C=C(\C#N)c1ccccc1,-9.9%,2µM*,-29%,-2%,-2%,?,4%,?
Cn1c(=O)c(C(=O)N2CCc3ccccc32)cc2cccnc21,nt,nt,-27%,-5%,nt,?,-6%,?
C=CCOc1c(CNc2cccc(C(=O)O)c2)cccc1OCC,-0.7%,-43%,6%,20%,-11%,15%,-2%,22%
COc1ccc(N2CCCn3c2nc2c3c(=O)n(CCN3CCOCC3)c(=O)n2C)cc1,7.7%,6%,-22%,0%,-1%,1%,14%,5%
O=C(Cn1cc(SCc2ccccc2)c2ccccc21)N1CCCCCC1,-8.9%,nt,18%,nt,6%,1%[46.1 µM],nt,nt
CCC(=O)c1ccc(OCC(O)CNCCc2ccc(Cl)cc2)cc1 (stereo not drawn),nt,2%,-3%,-3%,nt,nt,-2%,nt
O=C1CC(N2CCC(Cc3ccccc3)CC2)C(=O)N1CCc1ccccc1 (stereo not drawn),-8.2%,-15%,nt,?,?,?,-34%,-8%
O=C(NCc1ccc(F)cc1)C1CCN(S(=O)(=O)c2cccc3nonc23)CC1,nt,2%,-3%,4%,nt,2%[46.1 µM],-2%,-4%[46.1 µM]
Cc1ccc(Cn2c(=O)n(CCCC(=O)NCc3ccccc3Cl)c(=O)c3ccccc32)cc1,-0.6%,nt,0%,nt,4%,9%[46.1 µM],nt,13%[46.1 µM]
O=S(=O)(N1CCCCC1)N1CCN(CC(O)COc2ccc3cc(Br)ccc3c2)CC1 (stereo not drawn),-10%,4%,?,-8%,2%,-28%,-20%,-21%
Cc1ccc(C(=O)Oc2cc(N)n(S(=O)(=O)c3ccc(C)cc3)n2)cc1,nt,nt,23%,8%,nt,?,-4%,-1%
CCc1nc2sc3ccccc3c(=O)c2c(=O)n1Cc1ccco1,-14%,-15%,-2%,-8%,-28%,1%,7%,0%
COc1ccc(-n2nc(C(=O)NCC(=O)NCc3ccco3)c3ccccc3c2=O)c(OC)c1,1.9%,2%,6%,16%,-2%,-13%,11%,11%
CCOc1ccc(NC(=O)/C=C/c2ccc(OC)cc2)c([N+](=O)[O-])c1,14µM*,-3%,19%,4%,4µM*,?,1%,-8%
O=S(=O)(NCCC1=CCCCC1)c1ccc(OC(F)(F)F)cc1,nt,nt,37%[activator],?,nt,-12%[46.1 µM],-1%,11%
CN(C)S(=O)(=O)N1CCN(c2ccc([N+](=O)[O-])c(N3CCOCC3)c2)CC1,nt,-3%,-22%,6%,nt,-2%[46.1 µM],0%,?
O=C(NCCN1CCOCC1)c1ccccc1Oc1ccccc1,3.2%,-3%,-8%,9%,-8%,6%,5%,-12%
# (continued)
SMILES,Cruzain inh Det,NS1 function inh,2A StopGo,RE007 growth inh,Cruzain noTriton,Lassa entry inh,SARS PLpro yeast,Marburg entry inh
C/C(=N/NC(=O)C1CCN(S(=O)(=O)c2ccc(C)cc2)CC1)c1cccc([N+](=O)[O-])c1,-5.8%,13%,-7%,nt,7%,0%,-7%,12%
O=C(CNC(=O)c1cccc(Cl)c1)NCCCSc1ccccc1,nt,nt,52%[activator],11%,nt,-22%,-4%,-2%
CCc1ccc(NC(=O)c2nc3nc(C)cc(C(F)F)n3n2)cc1,-3.6%,nt,24%,nt,-9%,13%[46.1 µM],nt,nt
CCn1c(CCCNC(=O)c2ccc(F)cc2)nc2ccccc21,4.8%,-10%,-23%,4%,-7%,nt,0%,nt
CCCc1cc(C(=O)Nc2cnn(Cc3ccc(F)cc3)c2)no1,nt,2%,9%,-10%,nt,nt,-3%,nt
Cc1ccc(S(=O)(=O)N(CC(=O)NCCSc2ccc(Cl)cc2)c2cccc(Cl)c2)cc1,-4.3%,nt,-13%,nt,-20%,-3%[46.1 µM],nt,?
O=C(NN=C1C2CC3CC(C2)CC1C3)c1cc(Cl)ccc1O,2.5%,-30%,0%,-1%,-4%,3%,-8%,12%[46.1 µM]
CC(C)(C)n1ncc2c(=O)n(CC(=O)NCc3ccco3)cnc21,-0.4%,-1%,33%[activator],15%,3%,-19%,-13%,?
COc1ccccc1CNC(=O)c1cnc(N(C)C)nc1,-0.6%,nt,-6%,nt,-11%,-12%[46.1 µM],nt,nt
O=C(COC(=O)CNC(=O)c1ccccc1F)Nc1cccc(S(=O)(=O)N2CCCCCC2)c1,nt,-7%,-6%,16%,nt,nt,3%,nt
COc1cccc(C(=O)Nc2ccc(C(F)(F)F)n(C)c2=O)c1,-3.3%,-5%,8%,-14%,7%,4%,-30%,?
CCOc1ccccc1N1CC(C(=O)N2CCOCC2)CC1=O (stereo not drawn),nt,-4%,3%,-7%,nt,10%,-1%,19%[46.1 µM]
CC1=CSC2=NC(=O)/C(=C/c3cccc(OC(=O)c4ccco4)c3)C(=N)N12,-15%,-21%,46%[activator],-25%,-23%,-7%,2%,?
CC(C)(C)NC(=O)C(c1cccs1)N(Cc1cccs1)C(=O)c1ccc(CN2CCOCC2)o1 (stereo not drawn),nt,nt,0%,-22%,nt,-8%,1%,-7%[46.1 µM]
Cc1ccc(NS(=O)(=O)c2cccc(C(=O)N3CCCCC3)c2)cc1,nt,nt,38%[activator],-26%,nt,3%,-3%,27%
COc1cc(NC(=O)C2CCCO2)c(OC)cc1NC(=O)c1ccccc1 (stereo not drawn),-4.1%,-8%,-4%,-13%,-6%,-19%,-7%,52%
COc1ccc(-c2nnc(SCC(=O)Nc3ccc(C)c(C)c3)s2)cc1,-3.4%,nt,2%,nt,0%,-17%[46.1 µM],nt,nt
COc1ccc(C(=O)OCc2cc(=O)n3ccsc3n2)cc1F,nt,nt,45%[activator],-5%,nt,17%,-3%,?
COC(=O)c1ccc(CSc2nnc(Nc3cccc(OC)c3)s2)o1,-2.1%,-23%,0%,-6%,1%,-3%,-15%,-4%
N#CC1=C(N)OC2=C(CC/C2=C\c2ccc(F)cc2)C1c1ccc(F)cc1 (stereo not drawn),-12%,4%,nt,nt,-18%,nt,-1%,nt
CCOC(=O)c1cc2c(=O)n3cccc(C)c3nc2n(Cc2ccco2)c1=NC(=O)c1cccnc1,-8.9%,?,9%,-5%,?,9%,1%,?
CCc1nc2ccccc2c(C(=O)OCc2nc3ccccc3c(=O)[nH]2)c1C,nt,nt,-21%,70%,nt,?,-13%,3.5µM*
Cc1cc(C)c2c(N)c(C(=O)c3ccc(Cl)cc3)sc2n1,-3.0%,-6%,-21%,-12%,?,15%,23%,?
CCn1c(SCc2ccc(F)cc2)nc2ccccc2c1=O,nt,-1%,?,31%,nt,-21%,-6%,?
COc1ccnc(Oc2ccc(F)cc2)c1C#N,nt,-1%,20%,-6%,nt,-19%[46.1 µM],-1%,11%[46.1 µM]
# Going on with the list:
SMILES,Cruzain inh Det,NS1 function inh,2A StopGo,RE007 growth inh,Cruzain noTriton,Lassa entry inh,SARS PLpro yeast,Marburg entry inh
CCCCn1c(SCC(=O)c2c(N)n(C3CC3)c(=O)[nH]c2=O)nc2cc(S(N)(=O)=O)ccc21,nt,nt,-17%,17%,nt,2%[46.1 µM],-1%,?
COc1ccccc1Nc1cc(C(=O)NCCCN(C)c2ccccc2)c2ccccc2n1,-4.6%,nt,-16%,nt,?,?,nt,nt
O=C(c1cccc(F)c1)N1CCC(O)(c2cccnc2)CC1,-3.4%,-32%,-8%,6%,3%,-5%,-1%,-4%
CCc1cccc(NS(=O)(=O)c2ccc3c(c2)oc(=O)n3C)c1,-1.2%,-15%,-4%,7%,5%,1%,0%,-16%
COc1ccccc1NC(=O)CN(Cc1ccco1)C(=O)c1ccc(=O)[nH]c1,nt,8%,-4%,0%,nt,6%,4%,16%
CCOCCc1nnc(NC(=O)CN2C(=O)c3ccccc3C2=O)s1,0.9%,-6%,nt,-3%,-13%,-12%,9%,2%
CCC(C)Sc1oc(-c2ccco2)nc1S(=O)(=O)c1ccc(Cl)cc1 (stereo not drawn),-20%,nt,-5%,nt,3%,-6%[46.1 µM],nt,9%[46.1 µM]
Cc1cc(=O)oc2cc(NC(=O)c3ccnn3C)ccc12,nt,-3%,21%,-2%,nt,28%[46.1 µM],6%,3%[46.1 µM]
Cc1ccc(-n2cc[nH]c2=S)c(C)c1,nt,0%,17%,2%,nt,0%,2%,-3%[46.1 µM]
CCOc1ccc(C(=O)CN2CCN(S(=O)(=O)c3ccc(OC)cc3)CC2)cc1,-11%,-28%,?,0%,-7%,-21%,-14%,19%
NC(=O)NCc1cccs1,nt,6%,80%[activator],-13%,nt,-9%,0%,7%[46.1 µM]
O=S(=O)(NCC1CCCO1)c1ccc(Br)s1 (stereo not drawn),2.5%,9%,13%,2%,-3%,11%,-2%,25%
CC1CCN(C(=O)c2[nH]cnc2C(=O)NCC(=O)OCc2ccccc2)CC1,nt,2%,-6%,6%,nt,nt,4%,nt
CNc1nc(NCc2ccccc2)nc(N)c1[N+](=O)[O-],nt,-4%,4%,12%,nt,nt,15%,nt
CC(=O)c1cccc(NC(=O)c2c(C)nn(-c3ccc(F)cc3)c2-n2cccc2)c1,-3.6%,nt,?,nt,5%,19%[46.1 µM],nt,nt
CCC(=O)c1ccc(OCC(=O)O)cc1,2.5%,4%,-29%,-10%,-4%,-13%,-1%,-3%

# Rows are unselected; overall some 4.6% were active at least once.
